VDR inhibitor = Inhibitors of the vitamin D receptor (VDR): qHTS; VDR-SRC2-3 peptide fluorescence polarization, 2 h; Potency, µM, without a hit: max response, negative = inhibition, most hits filed as inhibitors; 400,000 tested, 0.93% active; AID 504847, 2011; active = well fitted inhibition curve with a large enough effect; inconclusive = small, poorly fitted or top-dose-only effect, or another doubt; inactive = no such curve, though single readings can be large or run the other way; note: series mostly up to about 120 µM
Target sequence (P11473 whole entry, looked up): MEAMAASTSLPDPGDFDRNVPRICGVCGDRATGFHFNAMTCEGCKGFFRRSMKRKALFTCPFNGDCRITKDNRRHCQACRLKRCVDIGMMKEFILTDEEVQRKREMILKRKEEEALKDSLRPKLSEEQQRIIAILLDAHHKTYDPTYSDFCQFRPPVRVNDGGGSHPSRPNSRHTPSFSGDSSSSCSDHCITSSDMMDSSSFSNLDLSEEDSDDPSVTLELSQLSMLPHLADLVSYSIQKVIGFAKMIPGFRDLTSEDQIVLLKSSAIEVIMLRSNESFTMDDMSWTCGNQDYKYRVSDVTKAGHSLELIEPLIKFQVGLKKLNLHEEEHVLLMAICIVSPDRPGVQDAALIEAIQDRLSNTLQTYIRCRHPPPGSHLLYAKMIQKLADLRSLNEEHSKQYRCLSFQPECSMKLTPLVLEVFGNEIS
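Signal is fluorescence polarization, reporting how far test compounds block the interaction of VDR with the SRC2-3 coregulator peptide after a 2 h room-temperature incubation.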
* = called active by the depositor; u = inconclusive; & = joins results of further samples; [ ] = remark or other dose. % is set by controls: 0 for no effect and ±100 for the full control effect; potency is the fitted concentration of half-maximal effect. Not all compounds are listed; count on the stated rates, not on these rows.

The opening 5 compounds (preview)
VDR inhibitor	structure
-18%	CC1=C(O)C(=O)C(C2=C(O)C(=O)C(C)=C(O)C2=O)=C(O)C1=O
-1%	Cc1ccc(CNC(=O)C2CCCN(c3ncnc4c3nc3n4CCCCC3)C2)cc1 (stereo not drawn)
2%	Cc1c(O)nc(SCC(=O)Nc2nccs2)n(-c2ccccc2F)c1=O
14%	CC1CC(C)(C)CC2(C1)NC(=O)N(CC(=O)N1CCN(S(=O)(=O)c3cccc(F)c3)CC1)C2=O (stereo not drawn)
3%	Cc1ccc(C2C(C#N)=C(N)Oc3cc4c(cc32)OCO4)cc1 (stereo not drawn)

The listing, from the start:
VDR inhibitor	structure
-18%	CC1=C(O)C(=O)C(C2=C(O)C(=O)C(C)=C(O)C2=O)=C(O)C1=O
-1%	Cc1ccc(CNC(=O)C2CCCN(c3ncnc4c3nc3n4CCCCC3)C2)cc1 (stereo not drawn)
2%	Cc1c(O)nc(SCC(=O)Nc2nccs2)n(-c2ccccc2F)c1=O
14%	CC1CC(C)(C)CC2(C1)NC(=O)N(CC(=O)N1CCN(S(=O)(=O)c3cccc(F)c3)CC1)C2=O (stereo not drawn)
3%	Cc1ccc(C2C(C#N)=C(N)Oc3cc4c(cc32)OCO4)cc1 (stereo not drawn)
3%	COc1ccc(-c2nc3ccccc3c(=O)n2CCCn2ccnc2)cc1
-25%	Cc1ccc(CNC(=O)CSc2nc3ccccc3[nH]2)cc1
10%	Cc1ccc(NC(=O)C(C)n2nnc3sc4c(c3c2=O)CCCC4)cc1Cl (stereo not drawn)
3%	O=C(Cn1ncc2c([nH]c3ccccc32)c1=O)N1CCc2ccccc2C1
-21%	CC(=O)OC(COc1cccc(C)c1)Cn1cnc2ccccc21 (stereo not drawn)
0%	Cc1cccc(C)c1N1C(=O)C2ON(c3ccccc3)C(c3ccncc3)C2C1=O (stereo not drawn)
-12%	Cc1c(Br)cc(-c2nnco2)cc1Br
3%	CCCC(=O)OCC(=O)Nc1ccccc1Sc1ccccc1
-9%	COc1ccc(S(=O)(=O)N2CCC(C(=O)N3CCOCC3)CC2)cc1OC
6%	COc1ccc(Nc2nc(N)c(C(=O)c3ccc(OC)cc3)s2)cc1
-10%	CC(C(=O)Nc1ccc2c(c1)OCO2)n1cnc2c1c(=O)n(C)c(=O)n2C (stereo not drawn)
18%	CCCc1ccc(Oc2cn[nH]c2-c2ccc(O)cc2O)cc1
8%	C=CCNC(=O)c1ccc(S(=O)(=O)CC)c(Cl)c1Cl
-2%	Cc1cccc(C(=O)OCC(=O)N2CCC(c3ccccc3)=N2)c1O
-15%	CC(C(=O)Nc1cccc([N+](=O)[O-])c1)N1C(=O)NC2(CCCC2)C1=O (stereo not drawn)
-1%	CCOC(=O)c1cccc(NC(=O)CCSCCc2ccccn2)c1
10%	O=C(Nn1c(-c2ccc(Br)cc2)nc2ccccc2c1=O)c1ccc([N+](=O)[O-])cc1
23%	Cc1onc(-c2ccccc2Cl)c1C(=O)Nc1ccc(CN2CCCC2)cc1
-12%	C[C@H](CO)N1C[C@H](C)[C@@H](CN(C)Cc2ccc(C(=O)Nc3ccccc3N)cc2)Oc2c(NC(=O)C3CCCCC3)cccc2C1=O
27%	CC1(C)Cc2c(C#N)c(N)n(-c3ccccc3)c(=S)c2CO1
-23%	O=C(NCc1ccccn1)C1CCC(CNS(=O)(=O)c2cccc3nsnc23)CC1 (stereo not drawn)
-12%	FC(F)(F)c1ccc(NC2=NCCC2)cc1
-13%	COc1cc(NC2=CC(=O)CC(C)(C)C2)cc(OC)c1OC
-4%	CC(=O)NC1C(=O)N=C(SCC(=O)NCc2ccccc2)NC1=O (stereo not drawn)
-3%	CCCN1CCC(=O)N([C@H](CSc2ccc(OC)cc2)CC(C)C)CC1
-4%	O=C(COc1ncnc2ccccc12)NCCCN1CCCC1=O
21%	COc1ccccc1CNC(=O)CN(C)c1nn2c(=O)cc(C)nc2s1
6%	N#Cc1ccc(CN2CCC3(CC2)CCN(S(=O)(=O)c2ccccc2)CC3)cc1
2%	COc1cc2[nH]c(=O)n3nc(-c4ccccc4)nc3c2cc1OC
-19%	CCOC(=O)Cn1c(CN2CCN(c3cccc(Cl)c3)CC2)nc2c1c(=O)[nH]c(=O)n2C
12%	CCOc1ccccc1C(=O)Nc1c[nH]c(=O)[nH]c1=O
-13%	CN(Cc1cccc(Cl)c1Cl)c1ccc(S(=O)(=O)N2CCCCC2)cc1[N+](=O)[O-]
-12%	CCOc1c2ccc(C(=O)NCCc3cccs3)cc2nn1CC
-12%	CCc1ccc(/C=C(\C#N)C(=O)NC2CCS(=O)(=O)C2)cc1 (stereo not drawn)
-2%	Cc1ccc(N2CC(NC(=O)c3ccc(S(=O)(=O)N4CCCC4)cc3)CC2=O)cc1C (stereo not drawn)
9%	O=C(Nc1ccc2c(c1)OCCO2)c1ccc(CN2CCOCC2)cc1
4%	COc1ccccc1C(=O)N/N=C/c1cnc2ccccc2n1
-9%	C/C(=N\Nc1cccc([N+](=O)[O-])c1)c1ccccc1O
-13%	CCN(CC)S(=O)(=O)c1cccc(C(=O)N/N=C/c2ccc(O)c(O)c2O)c1
-13%	O=C1OCCC1(c1ccccc1)c1ccccc1
9%	CC(C)(C)NC(=S)NNC(=O)[C@H]1C[C@@H]1c1ccccc1
12%	CCc1noc(C)c1C(=O)Nc1nc(-c2ccc(OC)cc2)cs1
-6%	COc1ccc(N2C(=O)CC(N(CCc3ccc(S(N)(=O)=O)cc3)C(=S)Nc3ccccc3)C2=O)cc1 (stereo not drawn)
1%	CCOC(=O)c1c(C)oc2ccc(O)c(CN3CCCCC3)c12
-10%	COc1ccccc1N1CC(C(=O)OCC(=O)c2ccc(F)cc2)CC1=O (stereo not drawn)
-2%	CCOC(=O)N1CCN(S(=O)(=O)c2ccc(C(=O)Nc3sc4c(c3C#N)CCC4)cc2)CC1
-10%	N#CC1=C(N)OC2=C(C(=O)CCC2)C12CCC1(CC2)OCCO1
8%	O=C(COc1ccc(C(=O)c2ccc(F)cc2)cc1)Nc1cccc(S(=O)(=O)N2CCOCC2)c1
-7%	CC1Sc2ccccc2N(CC(=O)N(C(C)C)C(C)C)C1=O (stereo not drawn)
-1%	CCc1nnc(NC(=O)CCC(=O)N2CCN(Cc3ccc(OC)c(F)c3)CC2)s1
6%	CCO[C@H]1OC(C(=O)NCc2ccccc2)=C[C@@H](c2ccccc2)[C@@H]1CCCO
-18%	NC(=O)c1cc(S(=O)(=O)N2CCOCC2)ccc1Sc1ccccc1N
-10%	COc1ccc(Cc2c(O)nc(SCC(C)C)[nH]c2=O)cc1
1%	CN(C)CCNC(=O)CN1C(=O)COc2ccc(S(=O)(=O)N3CCCC3)cc21
4%	CNC(=S)N1N=C(c2ccc(C)cc2)CC1c1cc(OC)ccc1OC (stereo not drawn)

Copied from the list.
For VDR inhibitor, `CCOC(=O)N1CCN(S(=O)(=O)c2ccc(C(=O)Nc3sc4c(c3C#N)CCC4)cc2)CC1` reads -2%
For VDR inhibitor, `COc1ccccc1N1CC(C(=O)OCC(=O)c2ccc(F)cc2)CC1=O` (stereo not drawn) reads -10%
For VDR inhibitor, `NC(=O)c1cc(S(=O)(=O)N2CCOCC2)ccc1Sc1ccccc1N` reads -18%
For VDR inhibitor, `CCO[C@H]1OC(C(=O)NCc2ccccc2)=C[C@@H](c2ccccc2)[C@@H]1CCCO` reads 6%

New compounds follow.
VDR inhibitor	structure
-13%	Cc1cc(Cl)c(S(=O)(=O)N2CCSCC2)cc1OCC(=O)NC1CCCCC1
-1%	Nc1ncnc2c1ncn2[C@@H]1O[C@H](CNCc2ccccc2)[C@@H](O)[C@H]1O
10%	COc1ccc(C(=O)NCC(=O)N/N=C/c2ccc([N+](=O)[O-])o2)cc1OC
-15%	C=CCn1c2ccccc2c2nnc(SCC(=O)Nc3c(C)n(C)n(-c4ccccc4)c3=O)nc21
0%	CC12CNCC(C)(CN(C3(O)C(=O)Nc4ccc(Br)cc43)C1)C2=O (stereo not drawn)
u	CSc1ccc(C2C(C(=O)c3ccco3)=C(O)C(=O)N2c2nnc(SC)s2)cc1 (stereo not drawn)
-4%	CCOP(=O)(c1ccc(N(C)C)cc1)C(O)c1ccccc1OC (stereo not drawn)
2%	COc1ccc(CNC(=O)CCn2c(=O)oc3ccccc32)cc1
-6%	OCCNC(=S)c1ccccc1
-6%	COC(=O)c1sccc1NC(=O)CSc1ccccc1NS(=O)(=O)c1ccc(Cl)cc1
4%	O=C(O)CCCNS(=O)(=O)c1cccs1
-27%	CNC(=O)/C(=C\c1ccc2c(c1)OCO2)NC(=O)c1ccc(Br)cc1
-4%&13%&10%	c1ccc2[nH]c(-c3cscn3)nc2c1
-1%	CCOc1ccc2[nH]c(=O)c(CN(Cc3nnnn3Cc3ccccc3)CC3CCCO3)cc2c1 (stereo not drawn)
-25%	CC(C)Oc1ccc(C2C(C#N)=C(N)Oc3c2oc(CO)cc3=O)cc1 (stereo not drawn)
8%	CC(=O)Nc1cccc(/C(C)=N/NC(=O)c2cc(-c3ccncc3)nc3ccccc23)c1
37%[activator]	COc1ccc(CC(=O)OCC(=O)NNC(=O)c2ccccc2)cc1
9%	Cc1cc(C)c(NC(=O)C(=O)NCCc2csc(-c3ccc(F)cc3)n2)c(C)c1
-6%	CC1CC(C)CN(CCCNC(=O)Cc2c(C(=O)O)n(C)c3ccccc23)C1 (stereo not drawn)
-1%	CCOc1ccc(S(=O)(=O)N2CCN(C(=O)c3cc4ccccc4o3)CC2)cc1
-22%	C/C(=N/NC(=O)CNc1ccc(Cl)cc1C)c1ccc(C)cc1
8%	Clc1cccc(CNc2cc(-c3ccccc3)nc3nncn23)c1
-21%	O=C(Cc1ccc([N+](=O)[O-])cc1)Nc1nnc(C2CC2)s1
1%	CC(C)C(=O)Nc1c(-c2ccccc2Cl)c(=O)c2ccccc2n1C
-4%	CC1=CC(c2ccccc2)n2nc(NC(=O)CCCC(=O)O)nc2N1 (stereo not drawn)
u	Nc1c(C(=O)O)sc2nc(-c3ccccc3)cc(-c3ccc(F)cc3)c12
17%	COc1ccc2c(c1)c(C)cc[n+]2Cc1ccccc1
9%	O=C(CCN1C(=O)/C(=C/c2cccs2)SC1=S)Nc1ccc(C(=O)O)c(O)c1
15%	COc1ccc2nc(C)cc(C(=O)O)c2c1
-1%	CC(C)n1c(N2CCN(C(=O)Nc3ccccc3)CC2)nc2ccccc21
-11%	Cc1ccc(-n2nnnc2SCC(=O)c2c(N)n(C3CC3)c(=O)[nH]c2=O)cc1
8%	CC(=O)Nc1ccc2nc(NC(=O)COc3ccccc3Cl)sc2c1
-4%	CCn1c(SCC(=O)Nc2cccc(C)n2)nc2c1c(=O)n(C)c(=O)n2C
6%	COc1ccc(OC)c(CNC(=O)C2CCN(S(=O)(=O)c3ccc4[nH]c(=O)oc4c3)CC2)c1
-26%	CCCc1ccc2oc(C(=O)N3CCCC3)c(C)c2c1
-5%	CCC(c1nnc(SCC(=O)NCC2CCCO2)n1Cc1ccccc1)N(C)C (stereo not drawn)
-5%	NC(=O)NCc1ccccc1F
-2%	COc1cc(NC(=O)c2ccc3c(c2)OCCO3)ccc1NC(=O)c1cccs1
12%	COC(=O)c1sccc1OCc1cccc(OC)c1
7%	C#CCn1c(=O)c2c(nc(/C=C/c3cccc(OC)c3)n2C)n(CCCO)c1=O
10%	COc1ccc(Cl)cc1NC(=O)Nc1ccccc1SC
12%	Cc1ccc2[nH]cc(CCNC(=O)C3CCCCC3)c2c1
-13%	O=C(CN1CCc2ccccc2C1)NCC(=O)Nc1ccc(F)cc1
11%	O=C(O)CNC(=S)N(Cc1ccccc1)Cc1cccnc1
-1%	CCN(CC)c1ccc(NC(=O)CN2C(=O)c3cccnc3Oc3ccc(Cl)cc32)c(C)c1
4%	CC(C)N(Cc1nc2ccccc2c(=O)[nH]1)C(=O)c1ccc(NC(=O)CSc2nnnn2C)cc1
-4%	CCC(C)c1ccc(NC(=O)COC(=O)c2nc3nccc(C)n3n2)cc1 (stereo not drawn)
7%	COc1ccc(OCC(=O)NNC(=O)C(=O)Nc2cc(OC)ccc2OC)cc1
-8%	c1ccc(COc2ccc(OCCn3cncn3)cc2)cc1
u	CCCc1nn(C)c2c(=O)[nH]c(-c3cc(S(=O)(=O)N4CCN(C)CC4)ccc3OCC)nc12
-2%	Cc1c(C(=O)N2CC(C(=O)N3CCCCC3)Oc3ccccc32)oc2ccccc12 (stereo not drawn)
10%	C=CC[C@H](CC(=O)NCCO)C(=O)N[C@H](COC(=O)[C@@H](CC=C)Cc1ccc(F)cc1)Cc1ccccc1
1%	Cc1cccc(/N=C/c2c(O)c3ccccc3oc2=O)n1
0%	CCN1CCN(Cc2nnc(-c3ccc(C)cc3)o2)CC1
4%	Cc1ccc(CCNC(=O)c2ccc3c(c2)N(Cc2cccc(Cl)c2)C(=O)c2ccccc2S3(=O)=O)cc1
-16%	N#CC1(NC(=O)COc2cccnc2[N+](=O)[O-])CCCCC1
-10%	CC(C)CCN(Cc1ccco1)S(=O)(=O)c1ccc(-c2ccc(=O)[nH]n2)s1
1%	O=C(NC(=O)c1ccccc1O)c1ccc2c(c1)CCO2
-3%	CCOc1ccc(NC(=O)CN(C)C(=O)c2ccc3c(c2)S(=O)(=O)N=C2CCCCCN23)cc1OCC
6%	CCOC(=O)C1CCCN(S(=O)(=O)NC[C@H]2O[C@@H](n3cnc4c(N)ncnc43)[C@H](O)[C@@H]2O)C1 (stereo partly drawn)
-2%	CCOc1ccc(NC(=O)C(C)N2C(=O)c3ccccc3C2=O)cc1 (stereo not drawn)
-1%	CCCc1nnc(NS(=O)(=O)c2ccc(C)cc2)o1

Reprinted at random: five records from the list
VDR inhibitor	structure
6%	CCOC(=O)C1CCCN(S(=O)(=O)NC[C@H]2O[C@@H](n3cnc4c(N)ncnc43)[C@H](O)[C@@H]2O)C1 (stereo partly drawn)
4%	Cc1ccc(CCNC(=O)c2ccc3c(c2)N(Cc2cccc(Cl)c2)C(=O)c2ccccc2S3(=O)=O)cc1
u	CCCc1nn(C)c2c(=O)[nH]c(-c3cc(S(=O)(=O)N4CCN(C)CC4)ccc3OCC)nc12
1%	Cc1cccc(/N=C/c2c(O)c3ccccc3oc2=O)n1
-1%	CCCc1nnc(NS(=O)(=O)c2ccc(C)cc2)o1

High-throughput results deposited in PubChem BioAssay by National Center for Advancing Translational Sciences (NCATS).
